Source: PubChem
KSHV LANA nucl – inhibitors of KSHV LANA-nucleosome binding, primary screen, biochemical, fluorescence polarization, FITC-LANA1-23, chicken nucleosomes; FITC-LANA1-23 / chicken nucleosome fluorescence polarization; stronger effect = lower value; z-score (no concentration beside the values); 51,000 tested, 0.3% active; AID 720717, 2013;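 active = both repeat wells score below -2 in polarization z-score versus plate sample wells, excluding overly bright wells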;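 note: 100 nL library stock added to about 30 µL; numbers are from one replicate; some results filed as inactive read as strong as hits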
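Material: Purified chicken nucleosomes with FITC-labelled LANA N-terminal peptide (1-23) | Reagent: 50 nM FITC-LANA1-23 probe | Medium: TEN-BT buffer, pH 7.5 | Times: 10–45 min incubation at room temperature | Detection: Fluorescence polarization | Replication: Duplicates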
BasE inh – BasE siderophore enzyme inhibitors, primary screen, biochemical, Acinetobacter baumannii ATCC 17978, fluorescence polarization; purified BasE, fluorescence polarization binding displacement; inhibition, % (no concentration beside the values); 84,000 tested, 0.1% active; AID 485350, 2010;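 active = both replicates above 25% with normal brightness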;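 note: 0% = negative plate control signal and 100% = positive plate control signal; stock transfer was 100 nL into about 30 µL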
* hit, by the source's call; . = no result given. The list is partial; count on the stated rates, not on these rows.

SMILES	KSHV LANA nucl	BasE inh
CCOc1ccc(C(=O)C(C)OC(=O)c2cccnc2N2CCCC2)cc1 (stereo not given)	.	-2.1
CSc1nnc(C2CCCN2CC(=O)NC(c2ccccc2)c2ccccc2)n1C (stereo not given)	0.98	1.3
O=C(Nc1ccc(Cl)cc1)OCc1ccc(Cl)nc1	2	.
O=C(NC1CCCC1)c1ccc(Nc2nc3ccccc3n3nnnc23)cc1	0.057	-0.2
CC1CCCCN1c1nnc(NC(=O)NCc2ccccc2)s1 (stereo not given)	0.57	-0.7
O=C(NC1C(=O)NN(c2ccccc2)C1c1ccc(Cl)cc1)c1ccco1 (stereo not given)	.	-5.2
CCn1nc(C(=O)OC)c2ccccc2c1=O	.	0.5
CCn1c(SCC(=O)N2CCCCC2)nnc1-c1ccc(S(=O)(=O)N2CCCC2)cc1	-0.38	1.8
Cc1ccc(C2(c3ccc(C)o3)CCCCC2)o1	0.36	4.9
O=C(O)CCSc1nc(-c2ccccc2)cc(=O)[nH]1	-1	-1.7
COC(=O)c1cc(C)sc1NC(=S)Nc1cnn(C)c1C(N)=O	0.48	-1.8
CCn1cc(-c2cc(C(=O)O)no2)cn1	1	-0.4
COc1ccc(NC(=S)NC2CCCCC2)cn1	.	-1.9
O=C(O)c1ccc(O)c(Br)c1	.	-0.6
Cc1cc(/C=N/N=C2\C(=O)Nc3ccccc32)c(C)n1CC(C)C	.	1.3
CCOc1ccccc1C(=O)NC1CCNCC1	-2.2	-0.5
CC(O)CNc1cc(=O)oc2ccccc12 (stereo not given)	0.078	0.3
CCC(=O)N1CCc2cc(S(=O)(=O)NCC(OC)OC)ccc21	0.46	0.9
Cc1c(C)n(C(=O)CSc2nc3ccccc3s2)c2ccccc12	.	-1.5
Cn1c2ccccc2c2cnn(CC(=O)NCCN3CCCCCC3)c(=O)c21	0.37	-5.2
N#CCn1c(CSc2nnc(COc3ccccc3Cl)n2C2CC2)nc2ccccc2c1=O	.	-6.4
COc1ccc(Cl)cc1N/C=C(/C#N)c1nc2ccccc2n1C	-0.096	1.3
CNC(=S)N/N=C/c1c(C(=O)OC)cnn1-c1ccc(F)cc1F	-0.33	-0.1
CCCN1c2ccccc2NC1NC(=O)CCN(c1ccc(OC)cc1)S(=O)(=O)c1ccc(C)cc1 (stereo not given)	.	1.1
Cc1nnc(SCC(=O)N2CCN(c3cccc(Cl)c3)CC2)n1C1CC1	.	1.2
The list goes on.
SMILES	KSHV LANA nucl	BasE inh
Nc1nccc(-c2nn(-c3ccc(Cl)cc3)ccc2=O)n1	.	2.6
COC(=O)C1=C(NC(=O)c2cccc(Cl)c2)CCS1	.	0.4
C/C(N)=C(/C#N)C(=O)CSc1nc2nc(C)cc(C)n2n1	.	0.2
O=C(NCC(c1cccnc1)N1CCN(c2ccccc2)CC1)c1ccccc1 (stereo not given)	-1.2	-1.6
CCOC(=O)Cn1cnc2sc(C)c(C)c2c1=O	-1.1	-0.8
O=C(Nc1ccc(Cl)cc1)NC(Cc1ccccc1)C(=O)O (stereo not given)	0.26	1.8
Cc1nc(NS(=O)(=O)c2ccccc2)sc1NC(=O)Nn1cnnc1	-1.5	-2.8
CCOC(=O)N1CCN(Cn2nnc3ccccc3c2=O)CC1	.	0.5
Cc1ccccc1/C=C(\C#N)C(=O)OC(C)(C)C	-0.25	0.6
CN1CCC(N(C)Cn2ncn(-c3ccccc3)c2=S)CC1	.	-0.4
CCOC(=O)C1CCCN(C2=NC(=O)/C(=C/c3ccc(OC)c(OC)c3)S2)C1 (stereo not given)	-0.68	0.9
O=c1nc2sc3ccccc3n2c(=O)n1-c1ccc(Cl)cc1	0.33	4.5
COc1ccc2c(c1)OC(O)(C(F)(F)F)CC2=O (stereo not given)	.	-1.9
CCOC(=O)c1ccc2c(c1)nc(SCC(=O)NC(C)C(C)C)n2CC (stereo not given)	.	1.1
CCOC(=O)c1csc2ncc(C#N)c(=O)n12	-0.79	2.1
CN(Cc1ccccc1)C(=O)CSc1nnnn1C	.	3.1
CNC(=O)c1cc(I)c(OC)c(OC)c1	0.22	-0.6
CC1(C)CN(c2ccc(I)cc2)C1=O	-0.8	.
CCN(CC)C(=O)/C(=C/c1ccccc1)c1ccccc1	0.038	1.6
Nc1nc(-c2cccnc2)nn1C(=O)Cc1ccccc1	-0.49	-1.5
O=C(NCC1CCCO1)c1noc2c1CSc1ccccc1-2 (stereo not given)	-1.1	1.2
FC(F)(F)c1cc(N2CCCCC2)c2cccc(Cl)c2n1	.	2.1
CCOC(=O)Cn1cc(/C=C(\C#N)Sc2nc3ccccc3s2)c2ccccc21	-0.052	-5.8
Cc1ccc(CSCCNS(=O)(=O)c2ccccc2)cc1	-0.9	0.7
O=C(NCCCN1CCOCC1)c1ccc2c(c1)N(Cc1cccc(Cl)c1)C(=O)c1ccccc1S2=O (stereo not given)	-0.63	-14

Record cards, from the list above:
COC(=O)C1=C(NC(=O)c2cccc(Cl)c2)CCS1 in the list: KSHV LANA nucl = .; BasE inh = 0.4
Cc1nc(NS(=O)(=O)c2ccccc2)sc1NC(=O)Nn1cnnc1 in the list: KSHV LANA nucl = -1.5; BasE inh = -2.8
CCOC(=O)C1CCCN(C2=NC(=O)/C(=C/c3ccc(OC)c(OC)c3)S2)C1 (stereo not given) in the list: KSHV LANA nucl = -0.68; BasE inh = 0.9

Continued.
SMILES	KSHV LANA nucl	BasE inh
CN(CC1COc2ccccc2O1)C(=O)c1ccc2[nH]c(=O)c(=O)[nH]c2c1 (stereo not given)	.	-4.7
Cc1nc(-c2ccccc2)sc1C(=O)Sc1ccc(Cl)cc1	.	3.9
c1ccc(-n2ncc3c(N4CCN(CCOc5cccc6ccccc56)CC4)ncnc32)cc1	-0.19	-1.8
S=c1oc(-c2ccco2)nn1CN1CCc2ccccc2C1	.	2.3
CC(=O)NCCC(=O)Nc1ccc(N(c2ccccc2)C(C)C)cc1	.	2.8
CCOC(=O)C1CCCN(C(=O)c2ccc3c(c2)C(=O)N(Cc2ccco2)C3=O)C1 (stereo not given)	.	0.9
CC(=O)n1c(/C=C2/N=C(c3cccs3)OC2=O)cc2ccccc21	-0.64	4.1
CCOc1ccc(-n2c(CCC(=O)OC3CCOC3=O)nc3ccccc3c2=O)cc1 (stereo not given)	.	-2.8
COC(=O)C1(N2CCOCC2)/C(=C(\O)c2ccccc2)C(=O)C(=O)N1c1ccccc1 (stereo not given)	.	0.6
Cc1nc2nc(NC(=O)c3ccc(F)cc3)[nH]n2c(=O)c1Cl	0.59	4.4
Cc1nc(SCC(=O)Nc2ccc3c(c2)OCCO3)n(CC(C)C)c1C	.	1.9
CC(C)(C)OC(=O)C[n+]1cccc(C(N)=O)c1	.	0.1
CCn1cnc2cc(NCc3nc4ccccc4n3Cc3ccccc3)ccc21	0.58	-0.5
O=C(Nc1ccon1)c1ccccc1F	2.4	1.0
N#Cc1ccc(COC(=O)C2CCC(=O)N2)cc1 (stereo not given)	.	2.9
O=C(CNC(=O)C12CC3CC(CC(C3)C1)C2)OCc1nnc(-c2ccccc2)o1	.	0.9
FC(F)(F)c1ccccc1NC(=S)Nc1ccc(-c2csnn2)cc1	.	-4.3
O=C(O)CSc1nc2ccc(Cl)cc2[nH]1	0.35	4.0
COc1ccccc1C(=O)Nc1ccc(N2CCN(S(C)(=O)=O)CC2)cc1	-0.28	3.9
NCC(=O)Nc1ccc(Br)cc1	0.14	0.9
CC1(C)NC(=O)N(CC(O)COc2ccc(N3C(=O)c4ccccc4C3=O)cc2)C1=O (stereo not given)	-1.1	2.9
CC(C)NC(=O)c1cc(-c2ccccc2)on1	-0.15	-2.8
O=C1CC(c2ccc(Cl)cc2)N=C(NC(=O)c2ccc3c(c2)OCO3)N1 (stereo not given)	0.58	-0.8
Cc1ccc(-n2c(O)c(/C=N/c3ccnn3Cc3ccco3)c3ccccc3c2=O)cc1	.	-1.9
Cc1ccc2c(CN3C(=O)CCC3=O)cc(=O)oc2c1	.	-0.9

Quoted from the listing.
BasE inh, FC(F)(F)c1ccccc1NC(=S)Nc1ccc(-c2csnn2)cc1 stands at -4.3
BasE inh, CC1(C)NC(=O)N(CC(O)COc2ccc(N3C(=O)c4ccccc4C3=O)cc2)C1=O (stereo not given) stands at 2.9
BasE inh, Cc1ccc(-n2c(O)c(/C=N/c3ccnn3Cc3ccco3)c3ccccc3c2=O)cc1 stands at -1.9

Next section
SMILES	KSHV LANA nucl	BasE inh
O=C1c2ccccc2C(O)(Cc2ccccc2)N1Cc1ccccc1 (stereo not given)	0.036	1.2
C#CCOc1ccc(Cl)c2cccnc12	0.48	-9.8
COc1ccc(N=C2C(=O)Nc3ccc(Br)cc32)cc1	-0.7	1.5
O=C(c1ccc(-c2cccs2)s1)N1CCOCC1	-0.88	2.5
COC(CNC(=O)c1ccc(CS(=O)(=O)c2ccccc2)o1)OC	-0.53	0.3
CN1CCc2c(sc3[nH]c(=O)c4c(=S)nc(-c5ccco5)[nH]c4c23)C1	-2.1	26
Cc1ccc(S(=O)(=O)N2CCC[C@H]2C(=O)OCN2C(=O)c3ccccc3C2=O)cc1	.	2.0
Cc1cc(-c2ccc(C(C)C)cc2)n(-c2ccccn2)n1	-0.68	2.4
Cc1ccc(N2C(=O)Nc3ccc(Br)cc3C2(O)C(=O)N2CCN(c3ccccn3)CC2)cc1C (stereo not given)	-0.52	-1.3
Clc1ccccc1CSc1nncn1NCc1ccccc1	-0.4	0.5
COc1ccc(CCN2C(=O)CSC2=NC2CC2)cc1OC	.	0.3
O=c1[nH]c2ccccc2c(-c2ccccc2)c1Sc1nc2ccccc2o1	.	-1.5
CCOC(=O)c1cnn(-c2ccccc2)c1-c1ccccc1	-0.19	.
O=C(C1CCC1)N1CCN(c2ccccc2)CC1	-0.55	-0.2
Cc1cc2ncn(S(=O)(=O)c3ccc(S(=O)(=O)N(C)C)cc3)c2cc1C	-0.44	-0.1
CC(C)[C@H](NC(=O)c1ccccc1)C(=O)Nc1ccc2c(c1)OCO2	.	-0.2
CC(=O)NC(CC(=O)N1CCN(S(=O)(=O)c2ccc(C)cc2)CC1)c1ccccc1 (stereo not given)	.	2.1
CC(C)C(=O)Nc1ccc(Sc2ccc(F)cc2)cc1	0.032	.
COc1ccc(N(C=O)/C=C2\Sc3ccccc3C2=O)cc1	3.9	-43
O=C(CSc1nc2ccccc2[nH]c1=O)Nc1ccccc1	0.16	1.4
CCOC(=O)NC(=O)c1cn(CCc2ccncc2)c(=O)[nH]c1=O	.	1.1
CCONC(=O)Nc1ccccc1	-1.1	-0.2
O=C(NC1CCCCC1)NC1CCCc2ccccc21 (stereo not given)	1	1.8
Cc1cc(C(F)(F)F)nn1CC(=O)N1CCCCC1	0.87	4.3
Cc1cc(C)c2c3c(sc2n1)C(=O)N(c1ccccc1C)CC(=O)N3	.	4.2
The listing continues:
SMILES	KSHV LANA nucl	BasE inh
CC1(C)CC(=O)C2=C(C1)Nc1ccccc1N(C(=S)NCc1ccco1)C2c1cccnc1 (stereo not given)	0.26	-1.4
Cc1ccc2c(c1)N(CC(=O)NC1CCC(C)CC1)C(=O)c1cccnc1O2 (stereo not given)	-0.2	0.0
O=C(CCc1c[nH]c2ccccc12)Nc1cccnc1	.	3.1
O=C1CCC(C(=O)N2CCc3ccccc32)=NN1	.	0.5
COc1ccc(CNC(=O)C(CC(=O)N2CCOCC2)n2ccnc2)cc1 (stereo not given)	.	0.9
Cc1ccc(CN2CCN(N=Cc3ccccc3OCC(=O)O)CC2)c(C)c1	0.17	8.0
N#CSCCCOc1ccccc1Br	-0.57	-1.3
Cc1ccc2cc(CN3CCN(C)CC3)c(Cl)nc2c1C	.	-3.4
O=C(NCc1cccc(C(F)(F)F)c1)c1ccc[nH]1	2.9	.
COCCCN1C(=Nc2cccnc2)SCC1(O)c1ccccc1 (stereo not given)	.	2.2
CCNC(=O)CCn1nc(-c2ccccc2)c2ccccc2c1=O	2.5	0.6
O=C1C=CC(=O)N1c1ccc(S(=O)(=O)Nc2ccc(C(F)(F)F)cc2)cc1	.	0.1
COC(=O)C1CC(C)=CC(C)C1C(=O)O (stereo not given)	0.32	-6.9
CC(C)Cc1ccc(C(C)c2nc(-c3cccs3)no2)cc1 (stereo not given)	.	-0.1
COc1ccc(Br)cc1CNc1ccc(N2CCOCC2)cc1	0.48	-0.1
O=C1CCCC2=C1C(c1ccc(F)cc1)c1c([nH]c(=O)[nH]c1=O)N2 (stereo not given)	-0.021	0.7
CCOC1(OCC)N=C(N)C2(C#N)C(c3ccccc3F)C12C#N (stereo not given)	1.3	-3.4
O=C(NCc1ccc(F)cc1)c1ccc(S(=O)(=O)N2CCCC2)cc1	.	1.6
Cc1cc(C)cc(NC(=O)Cc2noc3ccc(C)cc23)c1	-0.13	-0.6
C=CCn1c(CNC(=O)c2ccccc2)n[nH]c1=S	0.6	-0.8

7 entries from above, sorted by number of heavy atoms, low to high:
SMILES	KSHV LANA nucl	BasE inh
COC(=O)C1CC(C)=CC(C)C1C(=O)O (stereo not given)	0.32	-6.9
Cc1ccc2cc(CN3CCN(C)CC3)c(Cl)nc2c1C	.	-3.4
Cc1cc(C)cc(NC(=O)Cc2noc3ccc(C)cc23)c1	-0.13	-0.6
COc1ccc(Br)cc1CNc1ccc(N2CCOCC2)cc1	0.48	-0.1
COCCCN1C(=Nc2cccnc2)SCC1(O)c1ccccc1 (stereo not given)	.	2.2
O=C1C=CC(=O)N1c1ccc(S(=O)(=O)Nc2ccc(C(F)(F)F)cc2)cc1	.	0.1
CC1(C)CC(=O)C2=C(C1)Nc1ccccc1N(C(=S)NCc1ccco1)C2c1cccnc1 (stereo not given)	0.26	-1.4
